Vif TR-FRET: inhibitors of Vif binding to APOBEC3G peptide, primary screen, biochemical, TR-FRET, GST-Vif 1-94, biotin-A3G peptide, dose response retest (AID 1117319) | inhibition, %; hits with a dose series show IC50 in µM | TR-FRET GST-Vif / biotin-A3G peptide binding; higher % means a stronger effect; test concentration not given here; strong numbers were not always called active | 260,000 tested, 0.57% active;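 active = above the screen mean plus three standard deviations and confirmed in dose response; inconclusive = results disagree or hit not tested in dose response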;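 note: Vif residues 1-94 fused to GST binding biotinylated APOBEC3G peptide 110-148; 0% = full assay without inhibitor and 100% = GST in place of GST-Vif; retest series ran down from 100 µM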
T cruzi repl: T. cruzi replication inhibition; T. cruzi beta-gal in NIH3T3, luminescence, 90 h; inhibition, % (test concentration not listed); 300,000 tested, 1.4% active; AID 1885;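 active = mean inhibition across valid replicates above about 55%, limit read from the data; inconclusive = mean below that limit but half or more replicates reach it; inactive = mean below it, under half of replicates reach it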;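 note: signal also drops with host cell toxicity which is not excluded here; 0% = plate median of DMSO wells and 100% = zero luminescence signal; higher percent means less beta-gal luminescence so fewer parasites; stock transfer was 50 nL into about 50 µL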
LANA-H2A inh: blocks KSHV LANA binding to histone H2A/H2B | Q9QR71 | cell-free LANA-H2A/H2B peptide, fluorescence polarization | inhibition, % (no concentration beside the values) | 320,000 tested, 0.6% active | AID 2629; in the data active = inhibition mostly above about 10%, no sharp cut-off; inactive = mostly below about 6.7%;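 note: stock transfer was 7.5 nL into about 10 µL; 0% = median of vehicle wells and 100% = median of positive control wells; one replicate is shown; the record names a cut of 25% in any replicate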
Beta apoptosis: blocks beta cell apoptosis. INS-1E cytokine-induced death, ATP luminescence, 48 h; percent of positive-control rescue, neutral wells zero. protection from apoptosis, % (no concentration beside the values). 300,000 tested, 0.8% active;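 active = all replicates at 75% or more, or half of them and the mean; inconclusive = half reach 75% but not the mean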;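 note: 0% = cytokine-treated negative control wells and 100% = positive control rescue; higher means more ATP so stronger rescue from cytokine killing; wells of about 40 µL received 100 nL stock; the first replicate is given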
Calb FLC: C. albicans growth modulation with fluconazole; C. albicans CaCi-2 (fluconazole-resistant clinical isolate) + fluconazole, Alamar Blue growth, 48 h; growth inhibition, % (test concentration not listed); 300,000 tested, 0.57% active;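 active = most replicates above 75%; inconclusive = exactly half above 75%; inactive = most below 75%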;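 note: all wells also contain fluconazole at 8 µg/ml as a sub-toxic cotreatment; 0% = median of DMSO wells and 100% = median of geldanamycin control wells; wells of about 8 µL received 7.5 nL stock; the first replicate is given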
A1 inh: inhibitors of the anti-apoptotic protein A1, read as caspase activation | caspase activation, % (concentration not given with the values) | 330,000 tested, 0.066% active | MEF A1-2A-BIM cells, Caspase-Glo 3/7 luminescence, 3 h; percent of clofoctol response, vehicle zero | AID 2462;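 active = over half of replicate activation scores above 10%, or exactly half above 10 with the replicate mean above 10; inconclusive = replicate mean below 10 yet half the replicates above 10; inactive = over half of replicates below 10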;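 note: wells of about 30 µL received 50 nL stock; many hits fall short of the cut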
AF4-AF9 inh: MLL-AF4/AF9 protein interaction inhibition; 350,000 tested, 0.47% active; AlphaScreen, biotin-AF4 peptide binding to FLAG-AF9; inhibition, % at 10 µM;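 active = every replicate reaching a set inhibition limit, whatever the replicate mean, cut at about 25% in these data; inconclusive = mean inhibition reaches that limit but some replicates miss it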;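 note: 0% = plate neutral control median and 100% = total signal loss; the record names both 10 and 1 µM as test concentration; the first replicate is given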
Target sequence (P42568 whole entry, looked up): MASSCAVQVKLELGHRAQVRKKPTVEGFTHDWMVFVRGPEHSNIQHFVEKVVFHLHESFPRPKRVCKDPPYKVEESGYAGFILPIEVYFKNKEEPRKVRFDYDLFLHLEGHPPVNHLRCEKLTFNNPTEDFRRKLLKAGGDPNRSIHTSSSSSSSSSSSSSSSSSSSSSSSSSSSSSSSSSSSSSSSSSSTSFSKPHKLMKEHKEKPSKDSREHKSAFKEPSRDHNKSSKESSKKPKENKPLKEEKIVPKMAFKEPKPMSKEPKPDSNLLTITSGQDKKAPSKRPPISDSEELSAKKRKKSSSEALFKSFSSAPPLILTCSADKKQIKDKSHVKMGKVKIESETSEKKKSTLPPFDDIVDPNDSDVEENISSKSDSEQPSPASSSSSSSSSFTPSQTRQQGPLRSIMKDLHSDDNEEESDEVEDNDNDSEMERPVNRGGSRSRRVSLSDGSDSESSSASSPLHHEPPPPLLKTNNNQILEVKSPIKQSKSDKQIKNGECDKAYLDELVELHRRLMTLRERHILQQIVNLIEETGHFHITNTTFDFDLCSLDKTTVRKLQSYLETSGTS
RanGTP-Imp inh: disruptors of Ran-importin-beta complex formation – biochemical, FRET, CFP-Ran, YFP-importin-beta, homogeneous, primary screen; cell-free CFP-Ran/YFP-importin-beta FRET ratio; 300,000 tested, 1.1% active; inhibition, % (concentration not given with the values);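 active = most replicates above 15%; inconclusive = exactly half above 15%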;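 note: 0% = DMSO wells and 100% = Ran loaded with GDP instead of GTP; wells of about 40 µL received 100 nL stock; the first replicate is given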
* = called active by the depositor; ? = inconclusive; · = no result given; & = joins results of further samples.

SMILES | Vif TR-FRET | T cruzi repl | LANA-H2A inh | Beta apoptosis | Calb FLC | A1 inh | AF4-AF9 inh | RanGTP-Imp inh
O=C(NCc1ccco1)C1CC(c2ccc(Cl)cc2)=NO1 (stereo not drawn) | · | -0.5 | 6.4 | 2.3 | 6.9 | -0.4 | -3.6 | 3.9
CC(C)CN(C(=O)c1cccc(Cl)c1)c1c(N)n(CC(C)C)c(=O)[nH]c1=O | · | -21.7 | -2.0 | -2.0 | 1.7 | -1.4 | 1.1 | 0.0
CC(C)CN1CCN(Cc2ccc(CN3CCCCC3)s2)CC1CCO (stereo not drawn) | -6.6% | 44.2 | 41.4* | -4.3 | -21.9 | 0.8 | · | -6.2
COc1ccc(/C=C2\SC(=S)N(CCCC(=O)Nc3ccc(C(=O)O)cc3)C2=O)cc1OC | · | -11.1 | -2.6 | -1.8 | 0.5 | 0.7 | 6.1 | -33.5
CC(=O)Nc1ccc(S(=O)(=O)N2CCC(N3CCCCC3)CC2)cc1 | · | -1.5 | 6.8 | 1.0 | 13.7 | 0.1 | -5.6 | 4.3
C[C@H](CO)N1C[C@H](C)[C@@H](CN(C)CC2CCCCC2)Oc2ccc(NC(=O)CCN3CCOCC3)cc2C1=O | · | · | 5.0 | -0.4 | · | 0.8 | 0.2&4.9 | ·
Cc1cc(C(=O)COC(=O)CCc2nc3ccccc3s2)c(C)n1C | ? | 1.4 | 12.5* | -3.7 | -9.9 | · | · | ?
Fc1ccc(CSc2ccc(-c3cccs3)nn2)cc1 | · | -1.7 | · | -3.8 | -29.3 | 1.3 | 5.4 | 4.8
Cc1nc(Cl)c(S(N)(=O)=O)c(C)c1Cl | -12.2% | -3.7 | -3.9 | -0.4 | 0.5 | 0.5 | -10.9 | 10.1
COc1cc2c(cc1OC)C(C1C(=O)CCCC1=O)N(C(=O)CCl)CC2 (stereo not drawn) | ? | -23.0 | 5.0 | -1.0 | -18.3 | 0.5 | -1.3 | 4.9
O=C(O)c1ccccc1-c1ccccc1C(=O)Nc1ccccc1 | -1.3% | -10.3 | 4.5 | -9.8 | -4.0 | 1.2 | · | 5.1
Cn1c(SCc2ccccc2Cl)nc2ccccc21 | ? | -2.8 | -4.6 | -1.5 | -4.3 | 0.0 | · | -11.9
O=C(NC(=S)Nc1cccc(F)c1)c1cccc([N+](=O)[O-])c1 | 27.1% | -3.3 | 4.6 | 3.8 | -8.8 | -1.2 | 0.3 | 2.8
CCCc1cc(=O)[nH]c(SC(CC)C(=O)Nc2ccccc2C#N)n1 (stereo not drawn) | -2.3% | -20.0 | 1.5 | -3.1 | 20.6 | -0.6 | · | 5.1
Cc1ccc(C)c(N2N=C(C(=O)Nc3nccs3)CCC2=O)c1 | -4.9% | -8.6 | -6.2 | 0.5 | 10.6 | 0.7 | -13.0 | 0.5
COc1ccc(C(CCN2CCCCC2)c2c(OC)cc(OC)c3c(-c4ccccc4)cc(=O)oc23)cc1 (stereo not drawn) | -1.2% | 42.5 | 1.3 | 86.3* | -10.3 | -0.7 | 19.3 | -1.1
COc1ccc(S(=O)(=O)N2CCOCC2)cc1NC(=O)c1cccc2c(=O)c(C)c(-c3ccccc3)oc12 | -17.3% | 27.1 | -3.8 | 18.6 | 0.9 | 0.5 | 8.6 | 1.4
CC(NC(=O)CCc1ccc(S(=O)(=O)NC2CCCCC2)cc1)c1ccccc1 (stereo not drawn) | -2.1% | -3.3 | 3.3 | 0.3 | 1.6 | 0.1 | · | 1.5
COc1ccc(S(=O)(=O)N2CCC(C(=O)NC3CC3)CC2)cc1OC | 2.5% | -17.6 | 5.6 | · | -2.5 | -0.8 | -3.1 | -2.0
CN(CCOc1ccc(Cl)cc1)C(=O)C1=CC=CN2CCS(=O)(=O)N=C12 | · | · | -4.8 | 3.0 | · | -1.7 | -2.2 | ·
C=C(C)CSc1nc2c(c(=O)[nH]c(=O)n2C)n1CCC(C)C | 7.3% | -4.0 | 2.0 | -0.8 | 4.2 | -0.6 | 8.5 | 1.7
Cc1cccnc1CN1CCN(Cc2nc(C(c3ccccc3)c3ccccc3)no2)CC1 | -0.7% | 5.6 | 6.5 | -1.1 | 6.3 | 0.4 | -0.8 | ?
CCCN1CCC2(CC1)C(C#N)=C(N)Oc1c2sc2nc(C)cc(C)c12 | 1.8% | 16.9 | 3.0 | 5.2 | 7.7 | 0.3 | · | 25.8*
COc1ccc(C(=O)N/N=C(\C)CC(=O)Nc2cccc(C(F)(F)F)c2)cc1 | -2.1% | 9.9 | -0.3 | · | 1.7 | -0.2 | · | -2.6
O=C(Nc1nnc(Cc2ccccc2)s1)Nc1ccccc1F | 1.4% | 0.4 | -2.8 | -4.9 | -1.8 | 0.8 | -3.6 | -0.8
COc1ccc(C2C3=C(CC(c4ccco4)CC3=O)Nc3ccccc3N2C(C)=O)cc1 (stereo not drawn) | 5.9% | -1.2 | 0.8 | 1.7 | -4.9 | 1.2 | · | -2.4
Cc1nn(C)cc1S(=O)(=O)NC1CCCC1 | · | -0.8 | -1.6 | · | -14.0 | -0.2 | -2.2 | -1.2
Cc1nn(-c2ccccc2)nc1CNC(=O)C(C)Cc1ccccc1 (stereo not drawn) | 14.9% | -4.2 | -2.4 | -0.6 | 2.4 | 0.5 | -1.7 | 0.1
O=C(CSc1ncccc1C(=O)O)NCCC1=CCCCC1 | 2.7% | 5.8 | 0.5 | -2.7 | 8.6 | 0.4 | · | -3.9
O=C(COC(=O)[C@H](Cc1ccccc1)NC(=O)c1cccs1)Nc1cc(F)ccc1F | -13.3% | -1.0 | -2.6 | -4.9 | -4.0 | -0.8 | -1.7 | 1.6
CCOC(=O)NC(O)C(=O)c1ccc(F)cc1 (stereo not drawn) | 23.8% | -18.9 | 3.2 | -5.5 | -9.4 | 0.6 | -0.2 | 2.3
COc1ccc(/C=N/OCC(=O)OCC(=O)N(C)c2ccccc2)cc1 | -6.9% | -13.6 | -1.5 | 0.1 | 1.8 | 0.8 | ? | -3.7
N#Cc1cccc(NC(=O)CSc2nnc(C3CC3)n2C2CC2)c1 | 6.2% | · | 4.2 | 1.0 | · | 1.1 | 1.6 | ·
CC(=O)Cc1nsc(NC(=O)c2ccc(-c3ccc(Cl)c(C(F)(F)F)c3)o2)n1 | · | 11.3 | -1.9 | 1.1 | 0.0 | 0.2 | · | -1.9
N#C/C(=C\c1ccc(OCc2ccc(Cl)cc2)cc1)C(=O)Nc1cccc(C(=O)O)c1 | · | -14.0 | -0.4 | 23.3 | 4.3 | -1.5 | 2.0 | ?
CC1=NN2C(=N)/C(=C\c3cc(C)n(-c4cccc(C)c4)c3C)C(=O)N=C2S1 | 12.0% | -0.8 | 2.1 | · | -15.3 | 0.4 | -0.6 | 3.8
COc1ccc(C(=O)CC(c2ccccc2)C2C(=O)CCCC2=O)cc1 (stereo not drawn) | 8.5% | 4.2 | 13.5 | -0.2 | 22.9 | -0.1 | · | 0.1
CC1=CC(C)(C)n2c(O)c(N=NC(N)=S)c3cc(C)cc1c32 | -0.4% | 26.1 | 3.1 | 8.3 | -2.1 | 0.4 | · | -1.6
C=CCn1cc(/C=N/N2C(=O)C3C4C=CC(C4)C3C2=O)c2ccccc21 (stereo not drawn) | · | -5.9 | 3.7 | 2.5 | ? | 0.4 | 2.3 | -1.3
CCc1noc(C)c1C(=O)Nc1nc2ccc(S(C)(=O)=O)cc2s1 | -3.2% | 11.2 | -0.6 | 13.7 | 10.7 | -4.1 | ? | -2.2
CCN(CC)c1ccc(NC(=O)c2nc3nc(C)cc(C(F)F)n3n2)cc1 | 14.7% | 6.2 | -7.4 | 4.3 | 13.7 | 0.6 | ? | 3.5
COc1ccc(C(=O)N/N=C(\C)CC(=O)Nc2ccc(N(C)C)cc2)c(OC)c1 | -0.4% | 14.3 | 0.2 | -4.8 | 8.2 | -0.9 | 7.9 | -0.5
O=C1NC(=O)c2cc(NC(=O)C3CCCO3)ccc21 (stereo not drawn) | 0.8% | -12.3 | -0.8 | -8.5 | 17.1 | ? | · | 2.3
Fc1ccc(-c2nnc(CSc3nnc(-c4cccs4)o3)o2)cc1 | ? | -8.2 | 2.9 | 0.2 | -22.1 | -0.7 | · | -1.2
CCCCOc1ccc(C2(C)CC(=O)NC2=O)cc1 (stereo not drawn) | -3.5% | -8.7 | 3.4 | -2.1 | -0.1 | 0.8 | · | -1.9
Cc1ccc(NC(=O)CN2C(=O)CSc3ccc(S(=O)(=O)N4CCCCC4)cc32)cc1 | · | -5.2 | -5.5 | -5.0 | -1.5 | 2.1 | 2.8 | 0.3
Cc1cc2cc(CCNC(=O)c3ccc(S(=O)(=O)N4CCOCC4)cc3)c(=O)[nH]c2cc1C | -1.8% | 7.1 | -1.6 | 0.8 | -14.2 | 0.2 | · | -3.7
O=C(Nc1ccccc1Br)C1CC(=O)N(c2ccc3c4c(cccc24)CC3)C1 (stereo not drawn) | -5.6% | -31.7 | -2.8 | -14.3 | 26.3 | 0.1 | -2.7 | 4.3
O=C(COC(=O)c1ccccc1)Nc1ccccc1N1CCOCC1 | 1.8% | 3.0 | -2.9 | -2.6 | -2.0 | 0.3 | · | -2.8
COc1c(C)cc(C(=O)C2CCCN(C(=O)c3snnc3C)C2)cc1C (stereo not drawn) | -2.9% | 7.1 | -8.0 | 2.2 | 13.4 | -0.2 | -1.9 | -2.4
COc1cc(C)cc2oc(=O)c(CC(=O)N3CCN(C(=O)C4COc5ccccc5O4)CC3)c(C)c12 (stereo not drawn) | · | -6.6 | -5.8 | 0.4 | 5.0 | 1.0 | -3.7 | 1.4
Clc1ccccc1-c1nc(-c2ccncc2)no1 | -3.5% | 39.8&12.1 | -6.6&2.3 | -1.9&-0.2 | -0.7&-7.9 | -5.4&-8.5 | 0.6 | 7.0&4.4
CCCS(=O)(=O)N1CCCC(C(=O)N2CCN(C(=O)OCC)CC2)C1 (stereo not drawn) | 0.1% | -16.0 | -1.5 | -4.0 | 3.0 | 0.2 | · | 0.3
CC(C)C[C@H](N)c1nnc(S(=O)(=O)Cc2cccc(F)c2)o1 | ? | 5.1 | 4.7 | -7.3 | -3.1 | -0.7 | -2.8 | -0.1
O=C(CSc1nnc(NC(=O)c2cccc(F)c2)s1)NC1CC1 | · | -13.4 | -0.1 | -2.2 | -15.2 | 0.6 | -1.9 | 0.8
CCCCOc1ccc(C(=O)Nn2cnnc2)cc1 | ? | -11.2 | 6.7 | -2.8 | 23.5 | -0.2 | · | 6.4
Cc1nn(Cc2ccccc2)c(Cl)c1/C=C/C(=O)OCC(=O)NC(C)C(C)C (stereo not drawn) | -7.5% | 1.9 | -1.4 | -2.5 | 37.6 | 1.5 | -0.4 | -0.6

Full records as entered above. Order of values: Vif TR-FRET	T cruzi repl	LANA-H2A inh	Beta apoptosis	Calb FLC	A1 inh	AF4-AF9 inh	RanGTP-Imp inh
`COc1cc(C)cc2oc(=O)c(CC(=O)N3CCN(C(=O)C4COc5ccccc5O4)CC3)c(C)c12` (stereo not drawn) in the list: ·	-6.6	-5.8	0.4	5.0	1.0	-3.7	1.4
`O=C(Nc1ccccc1Br)C1CC(=O)N(c2ccc3c4c(cccc24)CC3)C1` (stereo not drawn) in the list: -5.6%	-31.7	-2.8	-14.3	26.3	0.1	-2.7	4.3

Source: PubChem (several laboratories)
